# NPYLR7 ag: mosquito NPYLR7 agonism; HEK293T NPYLR7/Galpha15, GCaMP6s calcium fluorescence; activation, % at 10 µM; 0.15% of 270,000 active; in the data active means activation above about 40%;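 further: 0% = vehicle and 100% = reference agonist at the receptor; some compounds past the cut are filed as inactive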
# NPYLR7 ag max-min: further read-out of NPYLR7 ag, marked with its call; activation, %; measured here: Max-Min RFU normalised activation; some inactives read as strong as hits;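 span of the calcium signal over five minutes; 0% = vehicle and 100% = native peptide agonist; compound fluorescence can raise it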
# An asterisk follows results filed as active; & = joins results of further samples. The list is partial; count on the stated rates, not on these rows.
SMILES | NPYLR7 ag | NPYLR7 ag max-min
Cc1ccc(-n2nc(C)c(-c3ccccc3)c2NC(=O)CN(C(=O)c2ccc([N+](=O)[O-])cc2)C(C)C)cc1 | -3.4 | -1.4
NC(=O)CC1CCCCN1C(=O)c1ccc(=O)n(CCOc2ccccc2)n1 (stereo not drawn) | 0.5 | 9.9
CN1CCN(C(=Nc2nc(N3CCSCC3)c(C#N)cc2C#N)N(C)C)CC1 | 6.1 | 10.7
Cc1[nH]c(=O)[nH]c(=O)c1CC(=O)Nc1ccc2c(c1)Cc1ccccc1-2 | 2.8 | 0.7
CCn1cc(C(=O)O)c(=O)c2ccc(C)nc21 | -9.4&-11.3&-1.9&6.0 | -9.0&-14.1&-7.0&-49.4
Cn1c(C(=O)NCc2cccnc2Oc2ccc(F)c(F)c2)cc(=O)n(C)c1=O | 0.1 | -3.6
CC(C)(CNC(=O)CCc1ccccc1F)N1CCc2ccccc2C1 | -5.1 | -6.3
Cc1cc(C)nc(SCc2cc(=O)c(OC(=O)c3cc4ccccc4oc3=O)co2)n1 | -12.1 | -5.6
CN(C)CCN1C(=O)C2C3C=CC(C3)C2C1=O (stereo not drawn) | 7.1 | 6.4
CCc1cc(CN(C)C(=O)c2cnon2)on1 | 10.7 | 6.9
CC(=O)Oc1ccc(C(c2ccc(OC(C)=O)cc2)c2ccccn2)cc1 | -7.2&-6.3 | -12.4&-8.0
COc1ccc(-c2[nH]ncc2CNCCC2COc3ccccc3O2)cc1F (stereo not drawn) | -1.6 | -6.2
O=S(=O)(c1ccc(F)cc1)N1CCC(N2CCCC2)CC1 | -2.7 | -4.2
CCCCc1ccc(NC(=O)N[C@@H](Cc2ccccc2)C(=O)N2CCC(C(=O)Nc3ccc(OC)cc3)CC2)c(C)c1 | 2.9 | -0.5
Cc1cccc(NC(=O)c2n[nH]c([N+](=O)[O-])c2Br)c1C | -1.5 | 11.0
CC(C)c1[nH]n(-c2cccc(F)c2)c(=O)c1-c1ccc(NC(=O)c2ccc(F)cc2)cc1 | 17.0 | 15.3
O=C(CCC1(Cc2cccs2)CCC(=O)N1)NC1CCCc2ccccc21 (stereo not drawn) | 6.2 | 0.1
CCC1CCCCN1c1nc(-c2ccc(Br)cc2)nc2ccccc12 (stereo not drawn) | -0.4 | 8.7
O=c1c2cnc3nc(-c4ccncc4)nn3c2ccn1CCc1c[nH]c2ccccc12 | 4.0 | 6.8
O=c1c2ccc(Cl)cc2nc(-c2ccccc2I)n1Cc1ccccc1 | 28.3 | 17.6
O=S(=O)(c1cccc(C(F)(F)F)c1)N1CCN(C2c3ccccc3CCc3ccccc32)CC1 | 12.1 | 17.7
COC(=O)Cn1nc(C(C)C)c2cnn(-c3ccc(C)c(C)c3)c2c1=O | -2.4 | -2.3
O=C(Cc1cccs1)N1CCC(c2nc(-c3ccc(Cl)cc3F)no2)CC1 | 2.6 | 12.3
C#CCOCC(O)CN(CCN1CCOCC1)Cc1cccn1Cc1ccc(C(C)(C)C)cc1 (stereo not drawn) | 3.3 | 12.7
CCOC(=O)c1nn(-c2ccc(C)cc2)c(=O)c2c(NC(=O)c3cc(C)cc(C)c3)scc12 | -2.5 | -3.4
CC(C)n1c(CCNC(=O)Cc2ccccc2Cl)n[nH]c1=S | -4.6 | -3.6
COCCn1c(SCC(=O)Nc2ccc(OC(F)(F)F)cc2)nc2c(c1=O)SC(C)C2 (stereo not drawn) | -5.3 | -6.2
Cc1ccc(-c2cnc(CSc3nc(N)c(C#N)cc3C#N)o2)cc1 | 0.3 | 6.5
O=C1C(C(c2cccs2)N2CCN(c3ccccc3)CC2)Sc2ncnn21 (stereo not drawn) | 3.1 | 1.9
CC(C)COc1ccccc1CN(C)C(=O)Cc1ccncc1 | 12.9 | 10.7
COc1ccc(C(=O)OCc2cccs2)cc1S(=O)(=O)N1CCCCCC1 | 13.3 | 14.9
CC(c1cccc(O)c1)N(C)C(=O)CN1C(=O)COc2ccccc21 (stereo not drawn) | -4.9 | -5.5
O=S(=O)(c1ccc(Cl)s1)N1CCN(Cc2ccccn2)CC1 | 5.0 | 1.9
CSc1nc2sc3c(c2c(=O)n1C)CCC3 | -1.4 | -1.3
Cc1c(C#N)c(NC(=O)CCn2nnc(-c3ccc(Cl)cc3)n2)n(Cc2ccco2)c1C | 10.7 | 7.0
CC(C)(C)c1ccc(O)c(NC(=O)c2ccc(S(=O)(=O)c3ccc(Cl)cc3)nc2)c1 | -10.2 | -12.3
CCC(=O)Nc1cc(Cl)ccc1C(=O)N(C)CCCc1c(C)n[nH]c1C | -3.5 | -6.5
CCCCCCNC(=O)CC(c1ccc(C)cc1)c1cn(C)c2ccccc12 (stereo not drawn) | 22.8 | 12.8
Cc1ccc(-c2nc(C)sc2CC(=O)N(C2CC2)C2CCS(=O)(=O)C2)cc1 (stereo not drawn) | 5.9 | 6.5
CCn1ccnc1CN(Cc1cccnc1)CC1CCCN(C2CCCCC2)C1 (stereo not drawn) | 4.3 | 3.8
CC(=O)Nc1cc(C(=O)N2CCC(CCN3CC(C)OC(C)C3)CC2)ccc1C (stereo not drawn) | 4.8 | 3.2
COC(=O)c1cn(C(C)C)cc(C(=O)N2C[C@H]3CC=CC[C@H]3C2)c1=O | 23.2 | 9.3
CCCc1nc(C(=O)N(C)Cc2nc(-c3cccc(C)c3)no2)cs1 | -3.4 | -6.9
O=C(c1ccccc1Cl)N1CCCC(OCc2cccc([N+](=O)[O-])c2)C1 (stereo not drawn) | -3.5 | -3.3
CCn1c(CC2CCN(C(=O)C3C=CCN3)CC2)nn(C)c1=O (stereo not drawn) | 3.2 | 3.3
CCc1nc(C)c(C(=O)N(C)Cc2cc(-c3ccccc3)on2)o1 | 7.7 | -1.5
O=S(=O)(NCc1ccccc1)N1CCC(C(O)Cc2ccccc2)CC1 (stereo not drawn) | 8.9 | 7.6
c1ccc(N=c2scc(-c3ccccc3)n2Cc2ccco2)cc1 | -1.5 | -2.9
CCOC(=O)C1CCN(C(=O)C2COC3(CCCCC3)N2C(=O)c2cccc([N+](=O)[O-])c2)CC1 (stereo not drawn) | -0.3 | 2.2
CCN1CCN(c2nc(N3CCC(C)CC3)nc(N)c2[N+](=O)[O-])CC1 | 3.8 | 11.6
COc1ccccc1-n1cc(C(=O)N2CCCC3(CC2)CNC(=O)O3)cn1 (stereo not drawn) | 2.9 | -3.8
CC(=O)NCCC(=O)NCc1ccccc1-c1ccc(Cl)cc1 | 7.0 | 5.7
COc1ccc(CN(C)C(=O)CNC(=O)c2cccc(Cl)c2)cc1OC | 6.3 | 6.5
OCCN1CCN(c2nc(N3CCCCC3)nc(N3CCCCC3)n2)CC1 | 2.9 | 4.8
Cc1ccc(NC(=O)COn2nnc3ccccc32)cc1 | 2.3 | 1.0
CCC(NC(=O)c1cccc(OC)c1OC(F)F)c1ccc(Cl)cc1 (stereo not drawn) | 2.2 | -0.1
CN1CCC(N2CCOC(CCNC(=O)c3ccccc3O)C2)CC1 (stereo not drawn) | 24.8 | 14.5
CC1(C(=O)Nc2nccs2)CCN1C(=O)C1(c2ccccc2)CC1 (stereo not drawn) | 2.3 | 2.5
CCS(=O)(=O)Nc1ccc2c(c1)C(=O)Nc1ccccc1O2 | 5.8 | 3.9
CCOC(=O)c1c(C)[nH]c(C(=O)CN2C(=O)NC(C)(C)C2=O)c1C | 5.0 | 12.1

# Next results follow.
SMILES | NPYLR7 ag | NPYLR7 ag max-min
CC1CN2C(=O)CN(C(=S)Nc3ccc(F)cc3Cl)CC2c2ccccc21 (stereo not drawn) | 27.6 | 11.5
O=C(c1ccc(Br)cc1)N1CCCC(OCc2ccc(F)c(F)c2)C1 (stereo not drawn) | -2.9 | 3.5
Cc1cc(C(=O)Cn2cc([N+](=O)[O-])ccc2=O)c(C)n1Cc1ccco1 | 3.3 | 2.7
CCN1CCC(C(=O)NC(c2ccc(Cl)cc2)c2cnccn2)CC1 (stereo not drawn) | 10.9 | -1.2
Cc1ccccc1Oc1ncccc1CNC(=O)Cc1[nH]nc2ccccc12 | 1.8 | 2.8
CC(C#N)CN(C)S(=O)(=O)c1ccc(F)cc1 (stereo not drawn) | -1.4 | 0.0
CC(Nc1ccc(N2CCCC2)c(F)c1)c1nc(C2CC2)no1 (stereo not drawn) | 9.4 | 6.7
O=C(c1ccc(OC2CCN(Cc3cnn(-c4ccccc4)c3)CC2)cc1)N1CCCCC1 | 1.4 | -2.5
Cc1csc(=O)n1CC(=O)N1CCCc2cc(S(=O)(=O)N(C)C)ccc21 | 0.8 | -1.3
CC(CNC(=O)CN1CCOCC1C)c1nc2ccccc2s1 (stereo not drawn) | 4.1 | 2.7
Cc1cc(NCCc2ccccc2)n2c(nc3ccccc32)c1C#N | 3.4 | -4.3
COCC1CN(Cc2ccc(OC)cc2)C(=O)c2ccc(C)nc2O1 (stereo not drawn) | -0.4 | 9.0
Cc1cccc(Cl)c1NC(=O)c1ccc(SC(F)F)cc1 | 2.8 | 1.6
CN(C)CCCNC(=S)N1CCCSc2ccccc21 | 4.9 | 0.2
COCCOCC(=O)N1CCN(Cc2cc(=O)c(OCc3ccccc3Cl)co2)CC1 | 3.8 | 4.7
Cc1ccc(C(C)N(C)C(=O)Nc2cccnc2N2CCCC2)s1 (stereo not drawn) | -10.7 | -13.4
Cc1cc(C)cc(NC(=O)CN2C(=O)C(Oc3ccccc3)C2c2ccncc2)c1 (stereo not drawn) | 7.5 | 7.7
COc1cc(C=CC(=O)NCCCN2CCCC2=O)ccc1OCc1ccccc1 | -10.5 | -16.4
Cc1c(C(=O)Nc2ccc(N3CCC(N4CCOCC4)CC3)c(C#N)c2)cnn1-c1ccc(Cl)cc1 | 4.1 | -5.6
COc1ccc(C)cc1S(=O)(=O)NCc1ccc2c(c1)OCO2 | 13.3 | 3.5

# Shown with values under each structure: entries from further up.
# Each structure is followed by: NPYLR7 ag | NPYLR7 ag max-min
COc1ccc(-c2[nH]ncc2CNCCC2COc3ccccc3O2)cc1F (stereo not drawn)
    -1.6 | -6.2
Cc1cc(NCCc2ccccc2)n2c(nc3ccccc32)c1C#N
    3.4 | -4.3

# (list continues)
SMILES | NPYLR7 ag | NPYLR7 ag max-min
CC(C)C(=O)Nc1ncc(Cc2cccc(Cl)c2Cl)s1 | -17.4 | -17.9
COCCN1CCCC2(CCN(C(=O)CCc3ccc(C)cc3)C2)C1=O (stereo not drawn) | 10.1 | 6.4
N#Cc1ccc(CSc2nnc(-c3ccc(F)cc3)c3ccccc23)cc1 | -0.5 | -2.1
COCc1cc(C)nc(N/N=C\c2cc([N+](=O)[O-])cc(Br)c2O)c1C#N | -2.2 | 5.4
O=C(NC1CCN(CC2CCCC2)C1)c1cscn1 (stereo not drawn) | 4.9 | 2.6
CCSCC(C)NCc1csc(-c2cnccn2)n1 (stereo not drawn) | 18.0 | 15.7
CC1CCCC(NCc2ccncc2)C1C (stereo not drawn) | 14.4 | 3.1
O=C(CSc1nc(=O)[nH]c2c1CCCC2)c1ccc(Cl)cc1 | 0.2 | -3.9
CCn1c(=O)c(C(=O)NCC2CCCO2)nn(-c2ccccc2F)c1=O (stereo not drawn) | 3.4 | 12.7
Cc1cccc(COCC2CN(C(=O)CCOc3ccc(Cl)cc3)CCO2)c1 (stereo not drawn) | 19.4 | 11.6
C=CCN(Cc1nccn1Cc1c(F)cccc1Cl)C(=O)C1CCCC1 | 9.9 | 23.3
COc1cc(CNC(=O)c2n[nH]c(C)c2Br)cc(OC)c1OC | 6.3 | 5.2
N#CCCN(CCC#N)Cn1nc(-c2cccs2)n(-c2ccccc2)c1=S | 1.2 | 5.8
COC(=O)C1=CN(C)C=C(C(=O)OC)C1c1ccsc1 | 14.5 | 6.6
Nc1cc(-c2ccc(Cl)c(Cl)c2)nn1-c1ccc(C(=O)NCCCO)cc1 | 4.1 | 5.4
C#CCOCC(O)CN(Cc1cccc(OC)c1)CC1CC(c2ccc(F)cc2)=NO1 (stereo not drawn) | -2.8 | -1.0
CC1(C)CC2=NN(c3ccccc3)P(=O)(Nc3ccccc3)C2=C(N2CCCC2)C1 (stereo not drawn) | -3.9 | 3.6
CN1[C@@H](c2ccccc2)[C@@H](C(=O)N2CC(n3cccn3)C2)C[C@@]1(C)C(=O)O | 5.5 | 2.7
Cn1c(SCC(=O)c2ccc(Cl)cc2)nnc1-c1ccco1 | 17.3 | 6.8
O=C(C1CCCC1)N1CCCN(c2nc(C3CCOCC3)nc3c2cnn3-c2ccccc2)CC1 | -0.8 | 1.5

# One compound at a time (already shown). Screens in order: NPYLR7 ag | NPYLR7 ag max-min
# Listed for `O=S(=O)(NCc1ccccc1)N1CCC(C(O)Cc2ccccc2)CC1` (stereo not drawn) : 8.9 | 7.6
# Listed for `CCc1nc(C)c(C(=O)N(C)Cc2cc(-c3ccccc3)on2)o1` : 7.7 | -1.5
# Listed for `COCCOCC(=O)N1CCN(Cc2cc(=O)c(OCc3ccccc3Cl)co2)CC1` : 3.8 | 4.7
# Listed for `NC(=O)CC1CCCCN1C(=O)c1ccc(=O)n(CCOc2ccccc2)n1` (stereo not drawn) : 0.5 | 9.9
# Listed for `c1ccc(N=c2scc(-c3ccccc3)n2Cc2ccco2)cc1` : -1.5 | -2.9

# (further entries)
SMILES | NPYLR7 ag | NPYLR7 ag max-min
CCc1nc2c(OCc3cc(Cl)cc(Cl)c3)cccn2c1N(C)C(=O)CC(C)C | -16.0 | -10.7
CC1Oc2ccc(NC(=O)Cc3csc(-n4cccc4)n3)cc2NC1=O (stereo not drawn) | -0.4 | -2.3
Cc1ccc(C)c(NCCn2c(C)c(C)n3c4c(=O)n(C)c(=O)n(C)c4nc23)c1 | 3.5 | 1.4
O=C(NCC1CCCN(Cc2cccc(C(F)(F)F)c2)C1)c1n[nH]c2ccccc12 (stereo not drawn) | 4.6 | -5.4
CCOC(=O)C1(Cc2cccc(OC)c2)CCCN(Cc2cnc(SC)nc2)C1 (stereo not drawn) | 3.0 | 7.8
COc1ccc(OC)c(/C=c2\sc3nc(/C=C/c4ccc(C)cc4)nn3c2=O)c1 | 8.8 | 11.3
CCOC(=O)c1coc2c(CN(C)C)cc(O)c(Cl)c12 | 17.4 | 9.5
Cn1cnnc1Sc1ccccc1NS(=O)(=O)c1cccc(F)c1 | 0.2 | -0.2
CC(C)(C)C(=O)NCc1ccc(C(=O)OCCF)cc1 | -0.1 | -1.7
O=C(C1CC2(CCNCC2)CN1)N1CCC(c2nnc3ccccn23)CC1 (stereo not drawn) | 9.5 | 4.6

# Bioassay records: PubChem BioAssay, Fisher Drug Discovery Resource Center
